# TRPML1 ag – activates the human TRPML1 channel; Q9GZU1; TRPML1-expressing cells, Ca2+ dye fluorescence, FDSS; host cell line not named in the record; reference of the full effect not given here; activation, % (test concentration not listed); actives 0.12% (n = 410,000); in the data active = activation above about 50%; inconclusive = about 30% to 50%; inactive = below about 30%; note: 0% is about no effect; the text of the record puts the active cut at 80%
#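 TRPML1-DL cells, Tet-induced overnight (~16 h, 37 degrees C), loaded 45-90 min at room temperature with Ca8 no-wash calcium dye plus quencher. FDSS fluorescence: 10 s baseline, compound pin-transfer, 110 s agonist read, then EC80 54-4 (4uM final) and 110 s antagonist read.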
# PINK1 expr mod – modulators of PINK1 expression. PINK1 immunofluorescence, high-content cytometry, 24 h. Potency, µM (titrated, usually from 76.6 µM), for the others: top-dose activation (PINK1 increase), actives largely listed as activators. actives 0.2% (n = 410,000); active = well fitted activation curve with a large enough effect; inconclusive = small, poorly fitted or top-dose-only effect; inactive = flat fitted curve, though single readings scatter; cell line not stated here;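 note: potency is the fitted concentration of half-maximal effect; % of control where 0% means no effect; nearly all actives have a fitted effect of over 65% in size; a mitochondrial uncoupler was the plate control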
#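 Measures PINK1 amount and localization on or inside mitochondria by immunofluorescence. Stable cells get compounds at 5 concentrations for 24 hours before fixation and staining; CCCP controls included.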
# CtBP-E1A blk – inhibitors of CtBP/E1A interaction; activity change, % (test concentration not listed); AlphaScreen GST-E1A/His-CtBP binding, 1536-well; hits give low values; control for the full effect not named in the record; actives 0.49% (n = 340,000); AID 651724; in the data active means activity change below about -65%; inconclusive means about -30% to -65%; inactive means above about -30%; note: % is set by controls: 0 for no effect and ±100 for the full control effect; compound concentration not given in the record
#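 AlphaScreen with 125 nM GST-E1A and 125 nM His-CtBP (5X stocks) in Tris pH 8.0, 300 mM NaCl, BSA, Tween 20, TCEP. Compounds preincubated 2 h at 37 deg C, then glutathione donor/nickel acceptor beads added for 1 h at 37 deg C in dark.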
# Six1-Eya2 blk – Six1/Eya2 interaction inhibition; AID 651725; actives 0.56% (n = 360,000); activity change, % (no concentration beside the values); AlphaScreen GST-Six1/His-Eya2 binding, biochemical; hits give low values; control for the full effect not named in the record; Q15475+O00167; in the data active = activity change below about -65%; inconclusive = about -30% to -65%; inactive = above about -30%; note: % is set by controls: 0 for no effect and ±100 for the full control effect; compound concentration not given in the record
# Target sequence (O00167 whole entry, looked up): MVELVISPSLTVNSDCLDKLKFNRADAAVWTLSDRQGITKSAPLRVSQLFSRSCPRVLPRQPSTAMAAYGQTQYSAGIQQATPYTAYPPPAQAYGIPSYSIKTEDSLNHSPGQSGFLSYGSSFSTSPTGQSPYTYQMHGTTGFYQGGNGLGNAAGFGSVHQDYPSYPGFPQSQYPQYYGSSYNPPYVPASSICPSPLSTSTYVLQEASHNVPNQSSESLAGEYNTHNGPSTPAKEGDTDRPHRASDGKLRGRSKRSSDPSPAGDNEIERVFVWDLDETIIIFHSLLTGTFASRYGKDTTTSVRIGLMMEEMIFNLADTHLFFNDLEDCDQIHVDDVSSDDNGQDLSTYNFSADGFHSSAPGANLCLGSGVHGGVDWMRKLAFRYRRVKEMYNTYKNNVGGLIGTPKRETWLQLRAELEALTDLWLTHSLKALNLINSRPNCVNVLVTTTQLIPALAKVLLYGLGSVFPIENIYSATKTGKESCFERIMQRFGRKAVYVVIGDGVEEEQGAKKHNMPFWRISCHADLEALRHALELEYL
# Target sequence (Q15475 whole entry, looked up): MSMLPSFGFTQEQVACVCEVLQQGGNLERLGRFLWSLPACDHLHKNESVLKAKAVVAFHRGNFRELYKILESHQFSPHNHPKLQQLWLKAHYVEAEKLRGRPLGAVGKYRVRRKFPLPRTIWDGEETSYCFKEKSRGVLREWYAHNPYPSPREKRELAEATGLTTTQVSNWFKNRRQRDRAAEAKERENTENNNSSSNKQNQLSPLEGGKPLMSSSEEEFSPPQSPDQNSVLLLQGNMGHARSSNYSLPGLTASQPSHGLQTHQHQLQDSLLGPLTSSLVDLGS
#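 Six1/Eya2 binding was read as AlphaScreen signal after compounds were pinned into GST-Six1 plus His-tagged Eya2 (5X stock 250/500 nM) in pH 8.0 Tris/NaCl/TCEP buffer, beads added, then incubated 1 h, 37 C, dark.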
# TRPML1 inh – inhibitors of human TRPML1 channel; TRPML1-inducible cells, Ca2+ dye fluorescence, FDSS; hits give low values; inhibition of EC80 agonist-evoked calcium signal; AID 624415; activity change, negative = inhibition, % (concentration not given with the values); Q9GZU1; actives 0.02% (n = 390,000); in the data active means activity change below about -50%; inconclusive means about -30% to -50%; inactive means above about -30%;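 note: stimulus is agonist 54-4 at its EC80 concentration; % is set by controls: 0 for no effect and ±100 for the full control effect; compound concentration not given in the record; the text of the record puts the active cut at -80%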
#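 Tet-induced TRPML1-DL cells loaded with Ca8 no-wash calcium dye were read kinetically on FDSS. Compound addition was followed by EC80 agonist 54-4 (4 uM final); inhibition was read over 110 s.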
# D2 ag – agonists of human D2 dopamine receptor (beta-arrestin); P14416; DiscoveRx PathHunter D2 beta-arrestin, luminescence, 90 min; 100% = 57 uM dopamine signal; activation, % (test concentration not listed); actives 0.084% (n = 360,000); in the data active = activation above about 40%; inconclusive = about 15% to 40%; inactive = below about 15%; note: compound concentration not given in the record; the text of the record calls up to 30% inactive
#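 DiscoveRx PathHunter D2 beta-arrestin cells (2,100/well) attached overnight, then compound-stimulated 90 min at 37 C in HBSS/10 mM HEPES/0.1% Tween-20 buffer; beta-galactosidase complementation read by luminescence after 1 h at ambient temperature. Dopamine 57 uM final (EC100) as control.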
# Numbers without * were called inactive; . = not tested or not shown; & = joins results of further samples; [ ] = remark or other dose. The order is random; overall some 1% were active at least once.
SMILES,TRPML1 ag,PINK1 expr mod,CtBP-E1A blk,Six1-Eya2 blk,TRPML1 inh,D2 ag
COc1cc(C(=O)OCc2cc(=O)n3nc(C(C)C)sc3n2)cc(OC)c1OC,-0.8,0.7%,.,.,-2,.
O=C(Cc1ccc(NC(=O)N2CCCCc3ccccc32)cc1)Nc1ccccc1Br,2.5,-1.1%,.,.,2,.
Cc1ccc(C(O)c2nc3ccccc3n2C(C)C)cc1 (stereo not drawn),-0.1,1.9%,5,-7,36,-4.7
CCOc1ccccc1-c1cc(NC)ncn1,-1.1,1.7%,2,-6,.,-2.5
CCn1c(-c2ccccn2)nc2cc(S(=O)(=O)N(C)C)ccc21,2.1,-0.7%,-4,0,3,-0.9
CC(C)[C@H](NC(=O)NC1CCCc2ccccc21)C(=O)O (stereo partly drawn),0.3,.,4,5,2,-1.5
CCOc1ccc(N(CC(=O)NC2CCCCC2)C(=O)CCC(=O)Nc2cc(C)ccn2)cc1,-0.4,11%,14,-6,4,-5.5
CCC(C)n1c(SCC(=O)Nc2ccc3[nH]c(=O)[nH]c3c2)nc2ccccc2c1=O (stereo not drawn),-0.4,2.5%,-29,-8,21,9.9
CCOc1ccc(N(CC(=O)NCc2ccc(F)cc2)S(=O)(=O)c2c(C)noc2C)cc1,0.0,5.7%,-2,5,-1,-3.0
Cc1c(Cl)cccc1Nc1nn2c(=O)c3ccc(C(=O)NCCC4=CCCCC4)cc3nc2s1,0.6,-1.5%,.,.,5,.
CCOC(=O)c1cn2ccc(C)cc2n1,0.0,-1.3%,.,0,-5,3.3
O=C(COC(=O)c1cnccn1)Nc1ccc(Cl)cc1C(F)(F)F,0.0,-0.5%,-14,3,-8,-3.8
CCOC(=O)c1cc(-c2ccccc2)n(CC(=O)NCc2ccc(C)cc2)c1C,1.8,4.0%,.,.,-9,.
Cc1ccc(C(OCC(O)CN2CCCCC2CO)c2ccccc2)cc1 (stereo not drawn),1.8,-0.6%,10,3,-13,3.3
CC(O)CNc1nc(NCc2ccccc2)c2cnn(C)c2n1 (stereo not drawn),0.2,1.3%,.,-2,-20,1.6
CC(C)CCN(C(=O)Nc1ccc(Cl)c(Cl)c1)C(C)c1cccs1 (stereo not drawn),4.5,8.4%,.,.,54,.
Cc1ccc(O)c(C(=O)/C=C/c2ccc3c(c2)OCCO3)c1,1.3,-0.6%,.,1,26,-4.7
Nc1nnnn1/N=C/C=C/c1ccccc1,-0.4,0.0%,3,-1,-2,-2.3
CCc1nc2c(OCc3ccc(F)cc3)cccn2c1N(C)C(=O)c1ccco1,-0.6,0.0%,0,3,0,-3.6
CC(C)n1nc(C(=O)Nc2nc3ccccc3[nH]2)c2ccccc2c1=O,1.8,-1.4%,-21,-15,38,-0.7

# A different layout for four compounds above:
# Each structure is followed by: TRPML1 ag | PINK1 expr mod | CtBP-E1A blk | Six1-Eya2 blk | TRPML1 inh | D2 ag
> Nc1nnnn1/N=C/C=C/c1ccccc1
 : -0.4 | 0.0% | 3 | -1 | -2 | -2.3
> CCOc1ccc(N(CC(=O)NC2CCCCC2)C(=O)CCC(=O)Nc2cc(C)ccn2)cc1
 : -0.4 | 11% | 14 | -6 | 4 | -5.5
> CCC(C)n1c(SCC(=O)Nc2ccc3[nH]c(=O)[nH]c3c2)nc2ccccc2c1=O (stereo not drawn)
 : -0.4 | 2.5% | -29 | -8 | 21 | 9.9
> CC(C)[C@H](NC(=O)NC1CCCc2ccccc21)C(=O)O (stereo partly drawn)
 : 0.3 | . | 4 | 5 | 2 | -1.5

# Complete entries, quoted from the list.
# Nc1nnnn1/N=C/C=C/c1ccccc1 is listed as TRPML1 ag = -0.4; PINK1 expr mod = 0.0%; CtBP-E1A blk = 3; Six1-Eya2 blk = -1; TRPML1 inh = -2; D2 ag = -2.3
# CC(C)CCN(C(=O)Nc1ccc(Cl)c(Cl)c1)C(C)c1cccs1 (stereo not drawn) is listed as TRPML1 ag = 4.5; PINK1 expr mod = 8.4%; CtBP-E1A blk = .; Six1-Eya2 blk = .; TRPML1 inh = 54; D2 ag = .
# CCc1nc2c(OCc3ccc(F)cc3)cccn2c1N(C)C(=O)c1ccco1 is listed as TRPML1 ag = -0.6; PINK1 expr mod = 0.0%; CtBP-E1A blk = 0; Six1-Eya2 blk = 3; TRPML1 inh = 0; D2 ag = -3.6

# (further entries)
SMILES,TRPML1 ag,PINK1 expr mod,CtBP-E1A blk,Six1-Eya2 blk,TRPML1 inh,D2 ag
CCCn1cnc2cc(NCc3ccc(Br)cc3)ccc21,-0.8,-0.5%,-18,-5,-5,0.3
O=C(CSCn1nnc2c(=O)[nH]c(Cc3ccc(F)cc3)nc21)Nc1ccccc1,-0.1,-0.1%,.,.,5,.
CCOC(=O)c1cc(S(=O)(=O)NC2CCCCC2)cn1C,0.0,0.3%,.,6,6,-0.4
CC(=NNc1nc2ccccc2o1)c1cc2ccccc2cn1,8.3,-6.9%,-66*,-93*,-15,14
CN=C1CC(SC)=C1c1ccc(C)cc1,-0.3,4.8%,6,0,65,-0.6
CC(=O)NC1CC2CCCC(C1)N2C(=O)Nc1ccccc1 (stereo not drawn),-0.3,0.0%,6,0,7,-3.7
CCCCc1cc(=O)oc2cc(OCC(=O)NC(Cc3c[nH]c4ccc(O)cc34)C(=O)O)ccc12 (stereo not drawn),.,-0.6%,0,-3,.,-2.6
O=C(CSc1nnc2ccc(-c3ccco3)nn12)Nc1ccccc1F,0.1,0.7%,5,0,21,-1.3
O=C(O)c1ccc(N2C(=O)/C(=C/C=C/c3ccccc3)SC2=S)cc1,0.7,3.2%,12,9,-12,-1.1
Cn1c(=O)nc2n(-c3ccc(Br)cc3)c3cccc(Cl)c3cc-2c1=O,-0.1,18%,.,.,0,.
Clc1ccc(-n2nnnc2CN2CCOCC2)cc1Cl,1.3,-1.4%,4,7,-29,0.4
CCOCCCN1C(=O)C(O)=C(C(C)=O)C1c1cccs1 (stereo not drawn),0.4,1.6%,11,9,2,-2.0
C#CCOCCOCCOCCNc1nc(N2CCN(C(=O)C(Cc3cc4ccccc4[nH]3)n3cc(C(N)C(C)CC)nn3)CC2)nc(N2CCN(C(=O)C(Cc3cc4ccccc4[nH]3)n3cc(C(N)C(C)CC)nn3)CC2)n1 (stereo not drawn),-0.6,19%,-27,-28,3,-6.0
COc1cc(OC)c(C(=O)NCCCN2CCOCC2)cc1OC,-0.2,0.7%,0,1,2,2.6
CCOC(=O)CCCCCC(=O)Nc1ccc2c(c1)C(=O)N([C@@H](C)CO)C[C@@H](C)[C@H](CN(C)C(=O)c1ccncc1)OCCCC[C@H](C)O2,-0.2,0.6%,19,-9,7,-1.5
COc1c(S(=O)(=O)N2CCCCC2)ccc2c(S(=O)(=O)N3CCCCC3)cccc12,-0.3,1.4%,4,-1,38,-0.3
COc1ccc(NS(=O)(=O)c2cc(C(=O)N3CCN(C(C)=O)CC3)ccc2Cl)cc1,0.0,-1.4%,-7,-4,6,0.6
COc1ccc(CNC(=O)CCSCc2cccc(F)c2)cc1,-1.0,2.2%,4,-6,3,-1.1
COC(=O)CCCN=C1SCCN1Cc1ccccc1,1.9,-3.9%,-1,21,38,-5.6
Cc1ccn2cc(CCNS(=O)(=O)c3ccc([N+](=O)[O-])cc3)nc2c1,-1.2,0.4%,3,-7,-21,5.2
COc1ccc2c(C)cc(SCC(=O)Nc3nsc(-c4ccc(C)cc4)n3)nc2c1,1.4,2.9%,5,6,15,0.0
CCCCNC(=O)C1CCCNC1=O (stereo not drawn),-0.2,.,-13,-7,-1,-1.0
Cc1c(C(=O)NCc2ccc3c(c2)OCCO3)sc(=O)n1Cc1ccccc1C(F)(F)F,0.6,0.9%,-3,-6,.,6.0
N#Cc1ccccc1S(=O)(=O)N1CCN(C(=O)CN(Cc2ccco2)Cc2cccs2)CC1,-0.7,1.2%,-2,-7,-3,-2.7
CC(Oc1ccc([N+](=O)[O-])cc1)C(=O)NCCCN1CCOCC1 (stereo not drawn),0.4,0.1%,1,4,2,-5.2
c1csc(-c2nnc(-c3ccc(N4CCOCC4)cc3)o2)c1,0.7,1.5%,9,6,14,-1.4
O=C(c1sccc1Cl)N1CCN(Cc2ccc3c(c2)OCO3)CC1,0.1,-0.8%,7,-8,-2,4.6
CCS(=O)(=O)Nc1ccc(-c2nnc(SCC(=O)OC)o2)cc1,-0.8,1.9%,1,-6,0,-4.4
Cc1ccc(/C=C2\SC(N3CCN(C(c4ccccc4)c4ccccc4)CC3)=NC2=O)o1,0.0,2.2%,7,-24,11,-8.4
CN(C)c1ccc(NC(=O)Cn2cc3c(n2)CCCC3)cc1,0.3,12%,-8,-22,-5,1.4
Cc1ccc(SCC2(O)CCN(S(=O)(=O)c3ccc(Cl)cc3)CC2)cc1,2.6,1.0%,0,2,30,-3.0
CN(Cc1ccccc1)C(=O)c1ccc(CSc2nc3cccnc3n2Cc2ccccc2)cc1,0.5,-1.2%,.,.,-6,.
Cn1cnnc1SCC(=O)Nc1cccc(S(=O)(=O)N2CCOCC2)c1,-0.5,0.0%,6,5,-3,-0.6
COC(=O)c1ccc(NC(=O)Nc2ccc(F)cc2)cc1,0.1,-1.3%,9,-4,22,0.2
CCN(CC)CCNC(=O)c1ccc2c(c1)ncn2C1CCCCC1,-0.6,-0.9%,-3,-1,-12,-2.9
COc1ccc(Br)cc1C(=O)Nc1ccccc1-c1ccccc1,0.6,3.6%[38.3 µM],21,15,-7,-3.5
CCCC(C)(C)C(=O)N1CCC1(C)C(=O)Nc1ccc2c(c1)OCCO2 (stereo not drawn),-1.1,-0.9%,4,4,.,-4.4
COc1ccc(O)c(-c2cc(-c3ccccc3Cl)[nH]n2)c1,1.9,5.6%,-16,-15,47,-2.0
COc1ccccc1N1C(N)=NC(N)=NC1(C)C,-0.6&-0.1,2.2%&-1.7%,0&-1,12&3,0&-6,-5.2&-0.5
Cc1ccc(S(=O)(=O)N(C)C)cc1NC(=O)COC(=O)C1CC(=O)N(c2ccc3c(c2)OCCO3)C1 (stereo not drawn),-0.8,1.5%,1,-2,18,-3.0
O=C1C2CCc3ccccc3C2N1c1ccccc1 (stereo not drawn),0.5,0.1%,5,1,5,-4.1
O=C(O)c1cnn(-c2ccccc2)c1C(F)(F)F,0.2,-0.2%,.,14,-4,-0.7
Cc1ccc(C(=O)Nc2nc(C)c(C(=O)N(C)C)s2)o1,0.2,-0.2%,1,-3,3,-3.6
Cc1ccc(N2C(=O)[C@@H]3[C@H](C2=O)[C@H]2C=CC=NN2[C@@H]3C(=O)Nc2ccc(Cl)cc2)cc1,-0.4,0.6%,-1,7,-2,-0.9
COc1ccc(C)cc1NC(=S)N1CCN(S(C)(=O)=O)CC1,-0.4,4.4%,-2,-10,-5,-1.2
O=C(Cc1csc2ccccc12)NCc1ccc(F)cc1,1.0,-0.3%,.,.,27,.
C[C@@H]1CN([C@@H](C)CO)C(=O)CCCn2nncc2CO[C@H]1CN(C)S(=O)(=O)c1cn(C)cn1,-0.1,1.0%,-3,-2,-1,-4.6
Cc1onc2c(=O)n(-c3ccccc3)nc(-c3ccccc3)c12,-0.4,-0.1%,-3,-20,-8,-3.4
